Assay outcomes (PubChem BioAssay)
Arbovirus inh = antivirals against arbovirus infection; arbovirus infection cell-based antiviral screen; inhibition, % at 10 µM; hit rate 0.37% among 200,000;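 active = inhibition from about 30%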;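 also: bluetongue infection of BSR cells; cell survival read as ATP light after 72 h; 0% = infected wells without compound and 100% = uninfected wells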
Mtb growth = M. tuberculosis H37Rv growth inhibitors, H37Rv strain (AID 1626); inhibition, % at 10 µM; hits with a dose series show IC50 in µM; hit rate 0.95% among 220,000; M. tuberculosis H37Rv growth inhibition; higher % means a stronger effect;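 active = confirmed in a dose series; inconclusive = inhibition above 80% but not taken into the dose series; inactive = below 80% or under 30% at every dose of the series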;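 also: bacteria incubated seven days before Alamar blue readout; 0% = bacteria only wells and 100% = bacteria with antibiotic wells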
YopH PTP inh = YopH (Yersinia) phosphatase inhibition; fluorescence Ex485/Em525; inhibition, %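 (about 10 µM by stock and volumes)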; hit rate 0.16% among 140,000; AID 898;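 active = inhibition of 50% or more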;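 also: controls were vehicle for no effect and minimum signal wells for full effect; inactives centre near -20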
Mtb betalactam = beta-lactam sensitization of Mtb H37Rv. M. tuberculosis H37Rv growth with meropenem, percent inhibition; hits of this screen are not shown here. inhibition, % at 25 µM. hit rate 0.27% among 330,000. AID 434955;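 active = about 74% or more and at least 40 points above the plate without the antibiotic, then above 30% in a dose series; inconclusive = first-round hits that could not be retested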;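 also: growth measured after seven days incubation then overnight dye step; 0% = bacteria only wells and 100% = bacteria with antibiotic; twin plates without the antibiotic show which effects depend on it; some results filed as inactive read as strong as hits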
RecA splice inh = Mtb RecA intein splicing inhibition; P9WHJ3; inhibition, %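 (about 9 µM by stock and volumes)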; hit rate 0.75% among 290,000; cell-free RecA intein splicing, fluorescence; in the data active = inhibition above about 30%; inconclusive = no clear call, values can overlap the other calls;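 also: 0% = vehicle wells and 100% = reference inhibitor control wells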
Target sequence (P9WHJ3 whole entry, looked up, canonical isoform): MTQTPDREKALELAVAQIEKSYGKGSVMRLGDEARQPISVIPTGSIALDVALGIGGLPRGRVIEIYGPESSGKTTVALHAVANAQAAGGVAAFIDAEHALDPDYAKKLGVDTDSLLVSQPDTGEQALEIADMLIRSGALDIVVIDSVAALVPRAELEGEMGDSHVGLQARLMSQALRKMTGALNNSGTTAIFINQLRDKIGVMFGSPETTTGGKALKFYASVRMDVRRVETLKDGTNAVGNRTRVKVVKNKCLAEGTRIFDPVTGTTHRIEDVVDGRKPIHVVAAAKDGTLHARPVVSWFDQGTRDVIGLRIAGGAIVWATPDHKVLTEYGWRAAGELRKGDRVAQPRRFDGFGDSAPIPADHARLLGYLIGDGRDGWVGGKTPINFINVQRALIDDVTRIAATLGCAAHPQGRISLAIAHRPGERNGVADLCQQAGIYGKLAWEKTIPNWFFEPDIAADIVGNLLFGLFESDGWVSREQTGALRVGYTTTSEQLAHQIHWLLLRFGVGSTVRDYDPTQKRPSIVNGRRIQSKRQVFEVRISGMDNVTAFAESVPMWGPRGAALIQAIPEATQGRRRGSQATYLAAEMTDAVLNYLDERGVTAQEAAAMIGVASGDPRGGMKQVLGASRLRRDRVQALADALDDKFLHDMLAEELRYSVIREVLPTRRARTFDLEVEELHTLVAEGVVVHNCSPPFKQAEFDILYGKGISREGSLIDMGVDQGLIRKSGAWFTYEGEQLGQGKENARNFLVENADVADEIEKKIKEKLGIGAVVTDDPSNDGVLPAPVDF
Arbovirus inh repeat = also measured in Arbovirus inh; calls as there; inhibition, %; measured here: 10K subset replicate screen; many hits read low in the repeat;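 first of two repeat runs on a subset; 0% = infected and 100% = uninfected wells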
* marks the source's active call; other numbers are inactive results; u = inconclusive; x = not tested or not shown. A portion of the library; count on the stated rates, not on these rows.

SMILES	Arbovirus inh	Mtb growth	YopH PTP inh	Mtb betalactam	RecA splice inh	others
COc1ccc(N=Nc2cc(-c3ccccc3)ccc2O)cc1	x	x	x	8.6	3.6
COc1cc(OC)nc(NC(C)=O)n1	4.4	-4.6%	-36.4	-5.5	-1.2
CC1=C(C)CC(C(=O)NNC(=O)c2ccccc2)C(C(=O)O)C1 (stereo not given)	0.6	-2.0%	-22.1	-1.9	2.6
Cc1cccc(N(C)S(=O)(=O)c2ccc3c(c2)C(C)(C)C(=O)N3C)c1	x	x	x	-3.3	-13.7
Cc1ccc(C)c(NC(=S)N/N=C/C(C)c2ccccc2)c1 (stereo not given)	5.2	8.5%	x	-11.0	1.2
O=C(c1ccc(-c2ccc([N+](=O)[O-])cc2)o1)N1CCCCC1	-1.6	63.3%	8.8	94.2	0.5
COCCC(=O)N1CCC(Oc2ccc(C(=O)NC(C)CCn3cccn3)cc2)CC1 (stereo not given)	x	x	x	-3.0	-0.8
CCOC(=O)C1CCCN(C(=O)/C=C/c2cc(OC)c(OC)c(OC)c2)C1 (stereo not given)	3.0	0.6%	x	-4.1	1.2
C#Cc1ccc(CN2CCC(N3CCC(C(=O)NCc4ccccn4)CC3)CC2)cc1	x	x	x	-1.8	-22.8
Cc1ccc(SCc2nc3ccccc3n2CC(=O)Nc2ccccc2)cc1	-3.5	3.4%	-15.7	-1.3	0.3
Cc1cc(O)ccc1N/C=C1\CCCC1=O	-7.3	0.9%	-8.4	6.7	-3.8
COc1ccccc1C(=O)Nc1ccc(S(=O)(=O)Nc2cc(C)nc(C)n2)cc1	4.7	1.6%	3.7	2.0	-0.1
COCCNC(=O)c1c[nH]c2ccc(S(=O)(=O)Nc3ccccc3F)cc2c1=O	x	x	x	-1.2	-2.8
COc1ccc([N+](=O)[O-])cc1NC(=O)C(C)OC(=O)C1CCCC1 (stereo not given)	x	x	x	-4.3	0.3
CCN(CC)CCCN1C(=O)c2oc3ccccc3c(=O)c2C1c1cccc(OC)c1OC (stereo not given)	14.4	-3.2%	-23.6	-3.0	0.4
Cc1cccc2cc3c(N)c(C(=O)N4CCOCC4)sc3nc12	-12.5	0.4%	-32.6	-5.6	-1.6
Cc1ccc(C=Nc2ccccc2C(N)=O)s1	-4.7	-0.8%	-15.1	0.1	6.9
O=S(=O)(NC1CCCCC1N1CCC(O)CC1)c1ccc(Cl)cc1 (stereo not given)	x	x	x	5.5	-2.9
CCCC(NC(=O)C(C)NC(=O)CO/N=C1\C=C2CCC3C4CCC(C(C)=O)[C@@]4(C)CCC3[C@@]2(C)CC1)C(=O)O (stereo not given in full)	x	x	x	4.0	-0.7
Cc1cccc(N(C(=O)c2ccc(Cl)cc2)C2CS(=O)(=O)CC2OC(=O)c2ccc(Cl)cc2)c1 (stereo not given)	9.4	-9.2%	1.2	17.3	3.1
O=C1CC(N2CCOCC2)C(=O)N1c1ccc(Cl)cc1 (stereo not given)	x	-2.8%	x	-3.6	-1.9
Cc1ccc(C)c(S(=O)(=O)N2CCCN(C)CC2)c1	x	x	x	-3.2	-0.8
COc1cc(/C=N/Nc2ccc(C(F)(F)F)cn2)ccc1O	-7.5	1.2%	x	0.9	-4.5
Cc1ccc2cccnc2c1NC(=S)NC(=O)c1ccccc1	4.1	-3.4%	-31.0	92.6	0.0
CCN(CC(=O)Nc1c(F)cccc1F)C(=O)CSc1nnc(-c2ccco2)n1CC	x	x	x	6.8	-0.4
CC(=O)c1ccc(S(=O)(=O)N(CCCO)Cc2cc3cc(C)ccc3[nH]c2=O)cc1	x	x	x	-6.3	4.3
O=C(CSc1ccc(-c2ccc(-n3cccn3)cc2)nn1)Nc1ccc([N+](=O)[O-])cc1	x	x	x	8.7	-1.1
CC(C)Cc1nnc(NC(=O)CCC(=O)NC2CCCCCC2)s1	x	x	x	-5.9	-1.8
COc1cc(C(=O)NCCC(=O)NC(C)C)cc(OC)c1OC	16.4	0.1%	x	-7.1	-2.4
CCOc1ccccc1NC(=O)c1cccc(N2C(=O)CCC2=O)c1	x	x	x	2.9	-2.1
CCOC(=O)c1ccc(NC(=O)c2nc(SC)ncc2Cl)cc1	x	x	x	6.4	0.3
CCOc1ccc(S(=O)(=O)NCCC(=O)N2CCCCCCC2)cc1	x	x	x	-19.1	-1.2
Cc1cccc(C(=O)Nc2c(C(=O)N(C)C)cnn2-c2ccccc2)c1	x	x	x	-6.9	-1.0
Cc1ccc(/C=[N+](\[O-])c2ccccc2C)o1	x	x	x	-5.4	-3.6
O=C(CSc1ccc2nnc(-c3ccccn3)n2n1)Nc1ccccc1F	x	x	x	u	6.5
Cc1cccc(N2CCN(S(=O)(=O)c3ccc4c(c3)CCN4C(=O)CCC(=O)O)CC2C)c1 (stereo not given)	8.8	-9.8%	-57.7	5.3	-1.0
CCOc1ccc(NC(=O)c2ccc(NC(=O)CN3C(=O)C(=O)N(CC(C)C)C3=O)cc2)cc1	x	x	x	-4.1	-0.9
CCOC(=O)c1c(NC(=O)CS(=O)(=O)c2cn(CC)c3ccccc23)sc2c1CCCC2	3.0	5.8%	-18.8	1.3	4.0
O=C(NC(=S)NCc1ccco1)c1ccc(Br)cc1	x	x	x	-1.0	0.5
COc1cccc(C(=O)Nc2nnc(SCC(=O)Nc3ccc(NC(C)=O)cc3)s2)c1	x	x	x	-9.5	1.0
CCN1C(=O)[C@H]2[C@H]3[C@H](O)[C@H](O)C/C(=N\OC[C@@H](C)[C@H](OCc4ccccc4)C(C)C)[C@@H]3CC[C@H]2C1=O	-17.0	x	-16.7	-6.0	3.7
CC1CCCC(C)N1C(=O)c1cc2ncc(CCCl)cn2n1 (stereo not given)	8.6	-2.2%	-31.5	0.5	1.3
Cn1ncc([N+](=O)[O-])c1C(=O)Nc1ccccc1	x	x	x	-6.5	1.5
COC(=O)C1=C(O)CSC1=Nc1ccccc1	0.7	-4.7%	-36.8	-1.8	-4.9
CCOc1ccc(NC(=O)CN(C)S(=O)(=O)c2cnc[nH]2)cc1	-3.2	-3.2%	x	-5.2	-2.2
CSc1ccc(CN2CCN(Cc3ccccc3Cl)CC2)cc1	5.0	4.1%	x	-2.8	1.1
CCCCC(=O)N/N=C(\C)CC(=O)Nc1cc(Cl)ccc1OC	5.5	x	-24.9	40.0	5.4
C/C(=N\NC(=S)Nc1cccc(C)c1)c1ccccc1	-9.4	u	-27.9	92.3	2.5
O=C(Cc1ccc(-n2cccc2)cc1)N1CCc2ccccc21	2.2	2.5%	-36.2	-1.6	2.8
CN(c1ccc(C(=O)NCCSC(C)(C)C)cc1)S(C)(=O)=O	0.9	-3.5%	-19.9	-3.8	9.5

Remaining list, next part
SMILES	Arbovirus inh	Mtb growth	YopH PTP inh	Mtb betalactam	RecA splice inh	others
COc1ccc(CNC(=O)c2cc(S(=O)(=O)N3CCCC3)cn2C)cc1	x	x	x	-3.4	-1.2
CCOc1ccc(CC(=O)Nc2ccc(-c3ccc4nnc(C)n4n3)cc2)cc1	-9.4	-1.7%	x	77.2	-4.9
CCOC(=O)c1cccc(NC(=O)CS(=O)(=O)Cc2nc(-c3cccc(OC)c3)oc2C)c1	-4.1	-8.7%	-16.0	-4.6	4.4
CCC(C)NC(=O)CSc1nnc(-c2ccncc2)n1-c1ccc(OC)cc1 (stereo not given)	9.3	-4.8%	-65.9	-9.8	1.2
COCCC(=O)N1CCC(Oc2ccc(C(=O)N3CCCC(CCCO)C3)cc2)CC1 (stereo not given)	x	x	x	10.1	0.7
COc1ccc(C(=O)C(/C=N/O)=N/Nc2ccc(F)cc2)cc1	6.3	44.7%	x	-7.3	1.1
CC(=O)N1CCN(CCN=CC2=C(O)CC(c3ccco3)CC2=O)CC1 (stereo not given)	-6.9	-6.5%	-11.3	-0.6	-2.8
COc1cccc(CC(NC(C)=O)C(=O)NC2CCN(S(=O)(=O)c3ccc(NC(C)=O)cc3)CC2)c1 (stereo not given)	-0.5	-5.6%	x	-5.0	-2.3
O=C1/C(=C/c2ccc(O)cc2)CCc2ccc([N+](=O)[O-])cc21	-12.3	2.1%	-26.8	6.2	2.0
O=C(Cc1ccccc1)NCC(=O)N1CCCCCC1	3.1	-7.4%	-15.3	-0.6	1.6
COc1cccc(CN2CCC(n3nccc3NC(=O)CCOc3ccccc3)CC2)c1	x	x	x	-1.2	-0.9
Cc1ccc(C(=O)Oc2cccc(NC(=O)c3ccco3)c2)cc1S(=O)(=O)N1CCC(C)CC1	18.2	-0.5%	-26.0	-7.5	10.9
Cc1cc(=O)oc2cc(OCCC[n+]3ccccc3)ccc12	x	3.6%	x	-7.5	-4.3
COC(=O)c1ccc(C)c(-n2c(=O)n(Cc3ccccc3)c(=O)c3[nH]cnc32)c1	x	x	x	-5.4	-3.4
COC(=O)CS(=O)(=O)c1cc([N+](=O)[O-])ccc1NC(=O)OC	5.3	-13.9%	x	-1.7	-6.1
COc1ccc(CNC(=O)C2COc3ccccc3O2)cc1 (stereo not given)	-0.4	19.0%	-19.8	5.7	-0.2
COc1cc([N+](=O)[O-])ccc1NC(=O)Cn1ccsc1=N	1.2	7.9%	x	85.4	5.4
CCn1c(COc2ccccc2C)nnc1SCC(=O)CC(=O)Nc1ccccc1OC	-10.9	-13.3%	-38.2	-10.4	3.4
COC(=O)CN(C)C1CC(=O)N(c2ccc(Cl)cc2)C1=O (stereo not given)	-3.5	-12.3%	-25.0	-19.3	-1.0
Cc1ccc(C)c(S(=O)(=O)N2CCN(C(=O)CCc3nc4ccccc4c(=O)[nH]3)CC2)c1	x	x	x	-7.4	-1.6
O=C(NCCc1ccccc1)C(=O)NCC1CCNCC1	-0.5	1.2%	x	-4.8	-3.0
CCOC(=O)Cn1nc(C)c(NC(=O)COc2cccc(Cl)c2)c1C	2.5	-3.6%	x	-8.3	0.0
O=S(=O)(NCc1ccccn1)c1ccc2ccccc2c1	x	x	x	-5.3	-1.4
O=C(c1cccs1)N(Cc1ccc(Cl)cc1)C1CCS(=O)(=O)C1 (stereo not given)	x	x	x	-3.2	-6.2
Cc1cc(NC(=O)COc2ccccc2)ccc1Cl	x	x	x	92.8	4.1
COc1ccc(CCNC(=O)CSc2nnnn2-c2ccccc2OC)cc1OC	-0.1	-5.5%	-5.9	2.2	4.3	Arbovirus inh repeat=5.2
COCCSc1nc2c(c(=O)[nH]c(=O)n2C)n1CCCc1ccccc1	x	x	x	0.0	0.5
Cc1ccc(C2NC(c3ccc(C)cc3)C(C)C(=O)C2C)cc1 (stereo not given)	x	15.7%	x	8.5	10.3
Cc1cc(Cl)ccc1OCC(=O)O	-3.0	7.8%	-58.2	5.0	-0.5
CCNc1nc(NC(C)C)nc(N(C#N)CCOc2ccccc2)n1	-7.2	13.3%	6.5	3.2	-2.6

Among those listed so far, these contain two or more sulfur atoms.
SMILES	Arbovirus inh	Mtb growth	YopH PTP inh	Mtb betalactam	RecA splice inh	others
CCOC(=O)c1c(NC(=O)CS(=O)(=O)c2cn(CC)c3ccccc23)sc2c1CCCC2	3.0	5.8%	-18.8	1.3	4.0
COc1cccc(C(=O)Nc2nnc(SCC(=O)Nc3ccc(NC(C)=O)cc3)s2)c1	x	x	x	-9.5	1.0
CN(c1ccc(C(=O)NCCSC(C)(C)C)cc1)S(C)(=O)=O	0.9	-3.5%	-19.9	-3.8	9.5
O=C(c1cccs1)N(Cc1ccc(Cl)cc1)C1CCS(=O)(=O)C1 (stereo not given)	x	x	x	-3.2	-6.2

The list goes on.
SMILES	Arbovirus inh	Mtb growth	YopH PTP inh	Mtb betalactam	RecA splice inh	others
COC(=O)c1[nH]c(C)c(/C(O)=C2\C(=O)C(=O)N(CCCN3CCOCC3)C2c2ccccn2)c1C (stereo not given)	-0.2	-5.9%	-25.5	-3.5	-0.6
COc1ccc(S(=O)(=O)N2CCOC2CNC(=O)C(=O)NCc2ccccc2OC)cc1 (stereo not given)	x	x	x	u	0.2
O=C(CN1CCC(C(=O)c2cccc(Cl)c2)CC1)Nc1cccc(C(=O)O)c1	1.7	-4.0%	x	-10.5	-0.3
O=C(CSc1n[nH]c(=O)n1-c1cccnc1)N1CCOCC1	x	-3.0%	x	-5.2	-0.3
Cc1cccc(CN2CCN(Cc3cnn(-c4ccccc4F)c3)CC2CCO)n1 (stereo not given)	4.5	0.5%	x	-3.0	1.5

Three neighbouring records out of the list so far, for reference:
SMILES	Arbovirus inh	Mtb growth	YopH PTP inh	Mtb betalactam	RecA splice inh	others
COc1ccc(N=Nc2cc(-c3ccccc3)ccc2O)cc1	x	x	x	8.6	3.6
COc1cc(OC)nc(NC(C)=O)n1	4.4	-4.6%	-36.4	-5.5	-1.2
CC1=C(C)CC(C(=O)NNC(=O)c2ccccc2)C(C(=O)O)C1 (stereo not given)	0.6	-2.0%	-22.1	-1.9	2.6
